gsp antagonist = qHTS for Antagonists of gsp, the Etiologic Mutation Responsible for Fibrous Dysplasia/McCune-Albright Syndrome: qHTS | gsp-mutant cells, cAMP HTRF, 30 min; control for the full effect not named in the record | Potency, µM (series often up to 76.9 µM), inactives show top-dose activity change, negative = inhibition, actives largely listed as inhibitors | hit rate 0.4% among 340,000 | AID 624288, 2012; active = falling curve of any shape with a large fitted effect; inconclusive = falling curve, mostly with a smaller effect; inactive = flat or rising curve; cell line not stated here;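 note: intracellular cAMP measured with PDE inhibitor Ro 20-1724 present during compound exposure; potency is the fitted concentration of half-maximal effect; % is set by controls: 0 for no effect and ±100 for the full control effect; nearly all actives have a fitted effect of over 65% in size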
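Measurement of cellular cAMP by homogeneous time-resolved fluorescence following a 30 min compound exposure at 37C. The PDE inhibitor […] was present throughout; the assay buffer was DPBS with 0.05% BSA and 0.005% Tween 20.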
gsp ag = qHTS for Agonist of gsp, the Etiologic Mutation Responsible for Fibrous Dysplasia/McCune-Albright Syndrome: qHTS. gsp mutant cells, cAMP HTRF, 30 min; control for the full effect not named in the record. Potency, µM (series often up to 76.9 µM), without a hit: at the highest dose activation (cAMP increase), most hits filed as activators. hit rate 0.13% among 340,000. AID 624287, 2012; active = well fitted activation curve with a large enough effect; inconclusive = small, poorly fitted or top-dose-only effect, or another doubt; inactive = no such curve, though single readings can be large or run the other way; cell line not stated here;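 note: phosphodiesterase inhibitor Ro 20-1724 added with compounds to block cAMP breakdown; potency is the fitted concentration of half-maximal effect; nearly all actives have a fitted effect of over 60% in size; about a fifth of the inactives were tested at one dose only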
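Cells in DMEM/10% FBS with G418 were pretreated with compounds in DMSO plus […] (300 uM stock) for 30 min at 37C. cAMP was measured by HTRF (cAMP-d2 plus anti-cAMP antibody-K) after 30 min at room temperature.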
CtBP-E1A inh = qHTS Assay for Inhibitors of the CtBP/E1A Interaction; hit rate 0.49% among 340,000; CtBP / adenovirus E1A interaction (AlphaScreen); AlphaScreen GST-E1A/His-CtBP binding, 1536-well; active compounds read low; control for the full effect not named in the record; activity change, % (concentration not given with the values); AID 651724, 2012; in the data active means activity change below about -65%; inconclusive means about -30% to -65%; inactive means above about -30%; note: % is set by controls: 0 for no effect and ±100 for the full control effect
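AlphaScreen with 125 nM GST-E1A and 125 nM His-CtBP (5X stocks) in Tris pH 8.0, 300 mM NaCl, BSA, Tween 20, TCEP. Compounds preincubated 2 h at 37 deg C, then glutathione donor/nickel acceptor beads added for 1 h at 37 deg C in dark.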
D2 ag = Beta-Arrestin HTS for Positive Allosteric Modulators of the Human D2 Dopamine Receptor: Agonists. D(2) dopamine receptor (Homo sapiens), P14416. DiscoveRx PathHunter D2 beta-arrestin, luminescence, 90 min; 100% = 57 uM dopamine signal. activation, % (no concentration beside the values). hit rate 0.084% among 360,000; in the data active = activation above about 40%; inconclusive = about 15% to 40%; inactive = below about 15%; note: compound concentration not given in the record; the text of the record calls up to 30% inactive
Target sequence (P14416 whole entry, looked up): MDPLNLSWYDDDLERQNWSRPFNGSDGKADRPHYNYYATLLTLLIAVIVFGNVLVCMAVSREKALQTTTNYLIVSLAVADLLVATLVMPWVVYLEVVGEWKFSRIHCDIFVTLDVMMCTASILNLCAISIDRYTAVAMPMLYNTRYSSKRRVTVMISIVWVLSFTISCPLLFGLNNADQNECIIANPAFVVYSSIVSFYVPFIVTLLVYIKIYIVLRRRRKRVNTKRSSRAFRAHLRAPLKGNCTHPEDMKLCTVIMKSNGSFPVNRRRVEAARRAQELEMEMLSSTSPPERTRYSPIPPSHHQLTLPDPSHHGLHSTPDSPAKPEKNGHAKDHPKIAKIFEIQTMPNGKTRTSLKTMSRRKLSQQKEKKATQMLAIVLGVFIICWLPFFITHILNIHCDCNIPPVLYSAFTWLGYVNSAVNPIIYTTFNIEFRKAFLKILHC
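DiscoveRx PathHunter D2 beta-arrestin cells (2,100/well) attached overnight, then compound-stimulated 90 min at 37 C in HBSS/10 mM HEPES/0.1% Tween-20 buffer; beta-galactosidase complementation read by luminescence after 1 h at ambient temperature. Dopamine 57 uM final (EC100) as control.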
D2 PAM = Beta-Arrestin HTS for Positive Allosteric Modulators of the Human D2 Dopamine Receptor: Potentiators. potentiation, % (test concentration not listed). DiscoveRx D2 beta-arrestin cells, luminescence, 90 min; 100% = 57 uM dopamine signal. D(2) dopamine receptor (Homo sapiens), P14416. hit rate 0.23% among 360,000; active = potentiation of 50% or more; inconclusive = 30% to 50%; inactive = 30% or less;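 note: compound concentration not given in the record; tested on top of an EC20 dose of dopamine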
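PathHunter beta-arrestin assay in DiscoveRx D2 cells. Compounds were added with an EC20 of dopamine (50 nM final) for 90 min at 37 deg C. Luminescence was read 1 h after detection reagent, with 57 uM dopamine as the EC100 control.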
Six1-Eya2 blk = qHTS Assay for Inhibitors of the Six1/Eya2 Interaction; Homeobox protein SIX1 (Homo sapiens) + Protein phosphatase EYA2 (Homo sapiens), …; AlphaScreen GST-Six1/His-Eya2 binding, biochemical; active compounds read low; control for the full effect not named in the record; activity change, % (concentration not given with the values); hit rate 0.56% among 360,000; AID 651725, 2012; in the data active = activity change below about -65%; inconclusive = about -30% to -65%; inactive = above about -30%; note: % is set by controls: 0 for no effect and ±100 for the full control effect
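Compounds are tested against tagged Six1 and Eya2 proteins bridged by glutathione donor and nickel acceptor beads; after a one-hour incubation at 37 °C without light, AlphaScreen emission is recorded.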
The depositor's hits bear a star; u = inconclusive; x = not tested or not shown; [ ] = dose if it differs, or a comment.

SMILES	gsp antagonist	gsp ag	CtBP-E1A inh	D2 ag	D2 PAM	Six1-Eya2 blk
COc1cccc(CN2CCc3[nH]c(=S)[nH]c(=O)c3C2)c1	-1%	-1%	3	1.3	-13	3
Cc1cc(-c2nnc(SCC(=O)Nc3cccc(C)c3C)n2N)n[nH]1	4%	u	x	3.2	-1	-3
CCOC(=O)COc1ccc2c(c1)C(=O)CC1(CCCCC1)O2	-15%	-7%	4	-2.1	0	10
CCCc1cc(C(=O)Nc2cccc(C(C)=O)c2)no1	8%	-31%[inhibitor]	3	-5.1	-12	5
CCOC(=O)C1CCN(CC(O)COCc2ccccc2)CC1 (stereo not drawn)	10%	11%	2	1.7	3	5
COc1ccc(NCc2nnc(SCCN3CCCCC3)n2-c2ccc(C)cc2)cc1	-3%	-27%	x	-5.1	-5	-24
Cc1ccc(CN(C(=O)c2ccccc2[N+](=O)[O-])C2CCS(=O)(=O)C2)o1 (stereo not drawn)	4%	14%	-6	0.3	-9	3
CC(C)CCn1c(=O)c2ccccc2n2c(CN(C)Cc3ccccc3)nnc12	u	-37%[inhibitor]	2	-2.8	-17	-2
O=C(O)CCCCCNS(=O)(=O)c1cccc2nsnc12	5%	8%	4	-1.9	-2	0
O=C(Cn1nc(-c2ccccc2)ccc1=O)Nc1ccc(N2CCN(C(=O)c3ccccc3)CC2)cc1	12%	u	2	-1.2	-2	-8
COc1ccccc1-c1cc(C(=O)NC2CCCC2)no1	-8%	11%	7	0.5	-19	10
COC(=O)c1nc(NC(=O)c2cc(OC)c(OC)c(OC)c2)n[nH]1	u	-22%	-4	-0.5	2	2
COc1ccc(OC(C)C(=O)Nc2cccc(OC)c2)cc1 (stereo not drawn)	-2%	5%	2	-2.1	0	31
Cc1ccc(-n2c(-c3ccc(Cl)cc3Cl)n[nH]c2=S)cc1	-21%	0%[15.4 µM]	1	3.5	-13	-8
CCCSc1nnc(Cc2cc(=O)[nH]c(=O)[nH]2)n1-c1cc(C)ccc1C	u	-46%[inhibitor]	5	-0.9	2	8
COC(=O)CNC(c1ccccc1)c1cc(C)ccc1NS(=O)(=O)c1ccc(C)cc1 (stereo not drawn)	-16%	9%[15.4 µM]	-1	-5.0	-10	-18
CN(C(=O)Nc1ccc(Cl)cc1Cl)C1CCCC1	5%	-35%[inhibitor]	x	-4.6	-3	3
CCCCNc1c(N2CCN(C(=O)OCC)CC2)c(=O)c1=O	-22%	-19%	1	-2.2	1	-8
CC1(C(O)(C#CC[N+]2(C)CCCCC2)c2ccccc2)CCCC1 (stereo not drawn)	-9%	-8%[15.4 µM]	2	-4.4	-3	-2
CCOc1cc(C(=O)Nc2ccncc2)cc(OCC)c1OCC	-1%	22%[15.4 µM]	3	4.1	-5	8
C#CC(C)(O)C1CC(CC(=O)O)C1(C)C (stereo not drawn)	-9%	11%	5	5.6	2	5
Cc1ccc(N2NC(=O)/C(=C\c3cc4c(cc3[N+](=O)[O-])OCO4)C2=O)cc1C	-3%	13%[15.4 µM]	-1	6.7	-5	-19
CCOc1cccc(-c2nnc3sc(-c4ccco4)nn23)c1	-8%	24%	-9	-1.1	5	-16
C[C@H](CO)N1C[C@H](C)[C@@H](CN(C)S(=O)(=O)c2ccc(-n3cccn3)cc2)OCc2cn(nn2)CCCC1=O	x	-28%	5	-3.8	-3	10
Cc1cccc(N2CCN(C(c3ccccc3)c3nnnn3CC3CCCO3)CC2)c1C (stereo not drawn)	-19%	18%	-15	-2.1	-12	-17
The results go on.
SMILES	gsp antagonist	gsp ag	CtBP-E1A inh	D2 ag	D2 PAM	Six1-Eya2 blk
CC(C)C(c1nnnn1Cc1ccc2c(c1)OCO2)N1CCN(c2ccccc2)CC1 (stereo not drawn)	-9%	7%	6	-0.7	1	3
CC(=O)Nc1ccc(/C=N/OCC(=O)Nc2ccc(C)cc2)cc1	3%	-2%	9	-3.2	-23	2
COc1ccc(CCNC(=O)CSc2nc(-c3ccco3)cc(C(F)(F)F)n2)cc1OC	-15%	-51%[inhibitor]	7	-0.4	-6	-2
COc1ccc(OCc2nn3c(-c4ccco4)nnc3s2)cc1	-3%	-12%	-17	-1.1	-7	-7
CC(=O)N1CCN(c2nc3ccc(Br)cc3s2)CC1	0%	1%	x	-0.6	-4	-2
COc1ccc(C(=O)N(CCCO)C(C)C(=O)NC2CCCCC2)cc1OC (stereo not drawn)	-2%	-62%[inhibitor]	5	-1.3	-1	4
FC(F)(F)c1ccccc1Cc1c(-c2ccco2)nc2ccc(Cl)cn12	x	x	-17	-3.8	-7	-23
C[C@H](NC(=O)c1nc[nH]c1C(=O)N[C@@H](Cc1ccccc1)C(=O)OC(C)(C)C)C(=O)OCc1ccccc1	3%	-21%	x	-3.6	-13	-4
COc1ccc(C(=S)N2CCC(C(N)=O)CC2)cc1Br	-2%	-8%	-16	3.0	5	-19
CCOc1ccc(C(=O)C(C)OC(=O)Cn2c(C)csc2=O)cc1 (stereo not drawn)	-3%	-1%[15.4 µM]	2	-4.6	-7	-6
O=C(N[C@@H](Cc1ccccc1)C(=O)OCc1ccccc1)c1nc[nH]c1C(=O)N1CCN(c2ccccc2)CC1	-19%	x	-9	4.3	-30	-17
Fc1ccc(-c2n[nH]c(=S)n2CC2CCCO2)cc1 (stereo not drawn)	25%	25%	0	-4.2	-8	0
COc1ccc(-c2c(C)nn3c(-c4ccccc4)cc(C)nc23)cc1	u	-4%	-1	-3.8	-7	-9
O=C1C=C(Nc2ccccc2)C(=O)c2ccccc21	-3%	-18%	-15	u	7	u
C[C@@H]1CN([C@@H](C)CO)C(=O)CCCn2nncc2CO[C@@H]1CN(C)S(C)(=O)=O	x	-30%	-12	-10	-2	0
C=CCNC(=S)N1CCN(c2cc3c(cc2F)c(=O)c(C(=O)O)cn3CC)CC1	2%	5%[15.4 µM]	5	-0.5	-2	18
O=c1c2c(nc3c(-c4ccc(Cl)cc4)c[nH]n13)CCCC2	1%	10%	-27	-0.2	-39	-22
CCn1c(SCc2nc3ccccc3[nH]2)nnc1-c1cccnc1	6%	4%	3	-0.9	-13	0
CC12CCC(=O)N1C(C(=O)Nc1cccc(S(=O)(=O)N3CCCCCC3)c1)CS2 (stereo not drawn)	-6%	-4%[15.4 µM]	-13	4.5	-5	-7
Nc1ccc(Oc2ccc3nc(-c4ccccc4)c(-c4ccc([N+](=O)[O-])cc4)nc3c2)cc1	-25%	9%	u	-16	-4	u
O=C(CCNC(=O)c1ccco1)Nc1ccc(C(F)(F)F)cc1	0%	-4%[15.4 µM]	-3	-2.6	-8	6
COc1ccc(-c2nnc(SCc3nnc(-c4cccs4)o3)n2CC2CCCO2)cc1 (stereo not drawn)	-9%	-7%	0	-2.0	-8	3
COc1ccc(NS(=O)(=O)c2cn(C)c(=O)n(C)c2=O)c(OC)c1	15%	-8%	-17	-2.6	-5	11
O=CN1CCN(C2CC(=O)N(c3ccc(Br)cc3)C2=O)CC1 (stereo not drawn)	12%	u	5	-3.9	-34	2
CC(C)(C)c1ccc(NC(=O)N2CCN(c3ccc([N+](=O)[O-])cn3)CC2)cc1	-21%	3%[15.4 µM]	1	-1.0	-2	-8

Profiles as entered above. Values in the order: gsp antagonist, gsp ag, CtBP-E1A inh, D2 ag, D2 PAM, Six1-Eya2 blk
Listed for O=C(N[C@@H](Cc1ccccc1)C(=O)OCc1ccccc1)c1nc[nH]c1C(=O)N1CCN(c2ccccc2)CC1 : -19%, x, -9, 4.3, -30, -17
Listed for O=CN1CCN(C2CC(=O)N(c3ccc(Br)cc3)C2=O)CC1 (stereo not drawn) : 12%, u, 5, -3.9, -34, 2
Listed for C=CCNC(=S)N1CCN(c2cc3c(cc2F)c(=O)c(C(=O)O)cn3CC)CC1 : 2%, 5%[15.4 µM], 5, -0.5, -2, 18
Listed for CCOc1ccc(C(=O)C(C)OC(=O)Cn2c(C)csc2=O)cc1 (stereo not drawn) : -3%, -1%[15.4 µM], 2, -4.6, -7, -6

The results go on:
SMILES	gsp antagonist	gsp ag	CtBP-E1A inh	D2 ag	D2 PAM	Six1-Eya2 blk
CCCCn1c(N)c(N(Cc2ccccc2OC)C(=O)C(C)C)c(=O)[nH]c1=O	11%	2%[15.4 µM]	7	-5.2	-17	1
COCCn1c(SCc2nc3ccccc3c(=O)[nH]2)nnc1-c1ccncc1	1%	-44%[inhibitor]	0	-4.2	-8	3
CN1CCN(S(=O)(=O)c2ccc(NC(=O)C3CCCCC3)cc2)CC1	-6%	0%	-3	-1.5	7	6
CC1CCCCN1c1nnc(N)s1 (stereo not drawn)	-1%	5%	-4	-2.0	-2	-1
CCOc1ccccc1NC(=O)Nc1ccon1	-11%	u	-17	-1.5	-16	-19
COc1ccccc1N1CCN(CCCNc2c(C)c(=O)n(C)c(=O)n2C)CC1	1%	x	-14	11	-24	-11
Nn1c(SCC(=O)Nc2ccc3c(c2)OCCO3)nnc1-c1cccnc1	10%	2%	-3	0.2	-8	3
COc1cc(S(=O)(=O)NCc2ccccc2)ccc1-n1cnnn1	14%	-6%[15.4 µM]	-12	-1.8	-12	-1
NC(=O)c1ccc(NC(=O)COC(=O)CCCN2C(=O)c3cccc4cccc(c34)C2=O)cc1	-8%	7%	x	3.3	4	-5
CCS(=O)(=O)N1Cc2ccccc2CC1C(=O)Nc1nc2ccc(C)cc2s1 (stereo not drawn)	-3%	-12%	-5	-0.2	-6	3
CC(=O)OC[C@@H]1CN(Cc2ccccc2)C[C@H](n2cnc3c(NC(C)C)ncnc32)O1	x	x	5	3.1	0	-1
COc1ccc(N(CC(=O)NC2CC3CCC2C3)S(=O)(=O)c2ccc(C)cc2)cc1OC (stereo not drawn)	-9%	-20%	-2	2.2	-6	33
COc1ccc(-c2ocnc2C(=O)NCc2nn(-c3ccccc3)nc2C)cc1	u	5%	x	-4.4	-20	0
COC(=O)c1ccc(-n2nnnc2SCC(=O)N2CCCCC2)cc1	-10%	17%	-2	1.5	0	2
COc1c(F)c(F)c(C(=O)Nc2ccc(N3CCN(C(C)=O)CC3)c(Cl)c2)c(F)c1F	-3%	-26%	19	-0.8	-8	7
CCOc1ccccc1OCCCC(=O)Nc1ccc(OC)nc1	-4%	-58%[inhibitor]	4	-1.3	-9	5
C#CC(C)OC(=O)C(C)NC(=O)c1ccccc1 (stereo not drawn)	5%	x	6	-2.3	-2	3
O=S1(=O)CC(N2CCCC2)CN1C1CCCC1 (stereo not drawn)	x	x	1	-4.8	-8	6
Cc1cccnc1NC(=O)c1ccc(Cl)c(S(=O)(=O)N2CCCCCC2)c1	-2%	-74%[inhibitor]	0	1.4	-14	17
